HNF4A DNA FP: change in binding of human HNF4 alpha to DNA | hit rate 0.3% among 360,000 | AID 1224865 | activity change, % at 10 µM | P41235 | HNF4a-FITC DNA binding, fluorescence polarization, 1 h; in the data active means activity change above about 30%, passing the limit was not always enough;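 further: controls were the assay level and a saturating level of protein; the project sought stronger binding though the title names inhibitors; some compounds called inactive have numbers as strong as hits; positive values seem to mean higher polarization but the record does not say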
Target sequence (P41235 whole entry, looked up): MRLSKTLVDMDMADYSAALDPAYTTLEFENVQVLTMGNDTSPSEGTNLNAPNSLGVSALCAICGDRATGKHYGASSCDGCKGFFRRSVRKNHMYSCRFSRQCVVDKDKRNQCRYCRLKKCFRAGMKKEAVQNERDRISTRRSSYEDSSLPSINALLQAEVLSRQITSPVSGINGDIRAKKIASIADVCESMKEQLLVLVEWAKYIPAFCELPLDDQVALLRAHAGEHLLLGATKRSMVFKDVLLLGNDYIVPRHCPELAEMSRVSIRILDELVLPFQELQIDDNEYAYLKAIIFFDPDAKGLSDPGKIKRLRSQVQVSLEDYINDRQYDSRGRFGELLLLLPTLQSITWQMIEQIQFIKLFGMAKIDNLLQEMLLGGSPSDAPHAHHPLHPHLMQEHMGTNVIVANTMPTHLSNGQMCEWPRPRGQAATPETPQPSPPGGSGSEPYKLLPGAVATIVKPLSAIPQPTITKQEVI
FGF22 binding: shifts melting point of recombinant human FGF22; Q9HCT0; recombinant FGF22 thermal shift, SYPRO orange fluorescence; percent of sucrose octasulfate shift, DMSO zero; calls only at 9.99 µM; hit rate 1.5% among 340,000;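 active means melting point raised past a set limit in the mean and every replicate; three in four hits are not shown here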
Target sequence (Q9HCT0 whole entry, looked up): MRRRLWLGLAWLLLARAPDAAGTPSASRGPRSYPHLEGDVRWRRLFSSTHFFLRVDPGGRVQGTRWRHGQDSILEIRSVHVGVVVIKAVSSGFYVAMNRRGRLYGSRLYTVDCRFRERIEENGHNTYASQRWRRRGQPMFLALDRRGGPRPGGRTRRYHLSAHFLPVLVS
Numbers without * were called inactive; i = inactive; · = no result given. This is a subset; count on the stated rates, not on these rows.

Each structure is followed by: HNF4A DNA FP	FGF22 binding
CCC(=NNS(=O)(=O)c1ccc(C)cc1)c1ccc(OC)c(C)c1
  -0.4	i
CC(=O)Nc1ccc(-c2ccnc3c2CC(C(=O)NCc2ccc(N4CCN(C)CC4)cc2)O3)cc1 (stereo unspecified)
  -1.1	i
CC(=O)c1cccc(-c2ccnc3c2CC(C(=O)NCc2cccs2)O3)c1 (stereo unspecified)
  -1.0	i
CCOC(=O)C1=CCN(S(=O)(=O)c2ccccc2C)C1c1ccc(Cl)cc1 (stereo unspecified)
  -0.7	i
CC1CCC(NC(=O)CN2CCN(S(=O)(=O)c3ccc(Br)s3)CC2)CC1 (stereo unspecified)
  0.9	i
COc1ccc(NC2CCCN(C(=O)c3ccccc3-c3ncc[nH]3)C2)cc1 (stereo unspecified)
  0.5	i
CCc1ccc(/C=C2\SC(=S)N(CCCC(=O)NC3=NCCS3)C2=O)cc1
  -1.7	i
Cc1ccc(Cc2c(-c3ccc(C)cc3)nc3c(C)cc(Br)cn23)cc1
  10	i
COC(=O)c1ccccc1NC(=O)CSc1nc2ccsc2c(=O)n1CCCCC(=O)O
  4.7	i
CC(N)c1csc(Nc2ccc(C(=O)c3ccccc3)cc2)n1 (stereo unspecified)
  -3.2	i
CC(=O)CSc1nc2nccnc2[nH]1
  1.3	i
OC(c1ccc(Cl)c(F)c1)c1ncc(-c2ccc(Oc3ccccc3)cc2)[nH]1 (stereo unspecified)
  2.6	i
Fc1cccc(Cc2c(-c3ccco3)nc3c(Cl)cc(C(F)(F)F)cn23)c1
  8.1	i
CC1(C(=O)Nc2cccc(C#N)c2)CCN1C(=O)Cc1ccc(-c2ccccc2)cc1 (stereo unspecified)
  -1.4	i
CCOC(=O)C1(C)CCCN(C(=O)c2ccccc2C(F)(F)F)C1 (stereo unspecified)
  -2.2	i

Brought forward from above: three compounds, followed by the next part.
Each structure is followed by: HNF4A DNA FP	FGF22 binding
Fc1cccc(Cc2c(-c3ccco3)nc3c(Cl)cc(C(F)(F)F)cn23)c1
  8.1	i
CC1(C(=O)Nc2cccc(C#N)c2)CCN1C(=O)Cc1ccc(-c2ccccc2)cc1 (stereo unspecified)
  -1.4	i
CCOC(=O)C1(C)CCCN(C(=O)c2ccccc2C(F)(F)F)C1 (stereo unspecified)
  -2.2	i
CCCNC(=O)C1(C)CCCN(Cc2ccsc2)C1 (stereo unspecified)
  1.3	i
O=C(NCCN1CCC(n2c(=O)[nH]c3ccccc32)CC1)c1cccc(Cl)c1
  -0.3	i
C[C@@H]1CN([C@H](C)CO)C(=O)c2c(c3ccccc3n2C)-c2ccccc2CO[C@H]1CN(C)Cc1ccccc1
  -5.1	·
COc1ccc(C(C(=O)NC2CCCC2)n2c(CSCCOc3ccccc3)nc3ccccc32)cc1 (stereo unspecified)
  -1.8	i
NC(c1csc(Nc2ccc(C(F)(F)F)cn2)n1)C1CCCCC1 (stereo unspecified)
  -1.4	i
CN1C(=O)N(CC(=O)c2ccc3c(c2)OCO3)C(=O)C12CCCCC2
  1.2	i
CC1=C(C(=O)N(C)C)CC(CC(=O)NCC2CCCCC2)C(=O)N1CCCN1CCCC1=O (stereo unspecified)
  0.4	i
Cc1nnc(NC(=O)CCC2CCCCC2)s1
  4.3	i
CC(C)(C)c1nc2ccc(Cl)cn2c1CC1CCCCC1
  5.2	i
COc1cc(OC)cc(C2=Cc3ccc(OC)cc3C(CC(C)=O)N2c2ccc(-c3cncnc3)cc2)c1 (stereo unspecified)
  0.1	i
Cc1ccc2nc(-c3ccc(Cl)cc3)c(Cc3ccccn3)n2c1
  -4.5	i
COc1cc(CN2C[C@@H](CO)O[C@@H](n3cnc4c(Nc5ccccc5)ncnc43)C2)cc(OC)c1OC
  0.7	i
Cc1ccc(-c2nc3c(C)cc(Br)cn3c2Cc2cccc(F)c2)cc1
  3.1	i
COc1ccc(NC(=O)c2cc(C3CCCCN3C(=O)OCCF)on2)c(C)c1 (stereo unspecified)
  4.4	i
COc1ccccc1Cc1c(-c2ccc(Cl)cc2)nc2c(Cl)cc(C(F)(F)F)cn12
  11	i
COc1cccc(CNc2nc(NC(C)C)nc3ccsc23)c1
  8.2	i
CCNC(=O)C1(C)CCN1CCC(=O)c1ccc(C)cc1 (stereo unspecified)
  4.1	i
CCN(Cc1ccccc1)C(=O)c1cccs1
  -2.6	i
CCOC(=O)C1(C)CCCN(C(=O)c2cc(F)ccc2C)C1 (stereo unspecified)
  -2.8	i
Cc1c(C(=O)NCc2ccccc2C(F)(F)F)sc(=O)n1Cc1ccc2ccccc2c1
  0.6	i
COCC(=O)N1C[C@H]2CON(C)[C@H]2C[C@H]1c1ccc(N2CCCCC2)cc1
  14	i
Cc1cc(NC(=O)OC(C)(C)C)c(-n2nnnc2C(C(=O)c2ccccc2)N2CCOCC2)cc1C (stereo unspecified)
  -1.3	i
C[C@H](CO)N1C[C@H](C)[C@H](CN(C)C(=O)c2ccncc2)OCc2cnnn2CCCC1=O
  0.2	i
CS(=O)(=O)Nc1cccc(NC(=O)C2Cc3c(-c4cccc(F)c4)ccnc3O2)c1 (stereo unspecified)
  2.8	i
COCCNc1nc(Oc2ccc(Cl)c(Cl)c2)c2sccc2n1
  -1.7	i
CCN(CC)C(=O)C1=C(C)N(Cc2ccccc2)C(=O)C(CC(=O)NCCc2ccccn2)C1 (stereo unspecified)
  1.5	i
COc1ccccc1-c1cnc2c(c1)C(=O)N([C@@H](C)CO)C[C@H](C)[C@H](CN(C)C)O2
  0.2	i
Cc1ccccc1CNC(=O)c1csc([C@H]2C[C@H](O)[C@@H](CO)O2)n1
  -0.7	i
O=C(C1CCCCC1)N1C[C@@H](n2cc(-c3ccc(F)cc3)nn2)[C@H](O)C[C@@H]1c1ccc(Cl)cc1
  -4.0	i
C[C@@H]1Cc2[nH][nH]c(=O)c2[C@H](c2ccc(Cl)cc2)O1
  1.8	i
O=C(Nc1nnc([C@@H]2C[C@H](O)[C@@H](CO)O2)s1)NC1CCCCC1
  2.6	i
CC1=C(C(=O)N(C)C)CC(CC(=O)NCc2ccco2)C(=O)N1Cc1ccccc1 (stereo unspecified)
  -3.1	i
O=C(O)Cc1ccc2c(c1)Cc1cccnc1O2
  5.0	i
CC(=O)c1c(C)[nH]c(C(=O)OCC(=O)c2ccc(Br)cc2)c1C
  -1.4	i
O=C(Nc1cccc(Cl)c1)c1nc[nH]c1C(=O)Nc1ccccc1F
  2.6	i
CCOC(=O)[C@]12CCCC=C1N(Cc1ccco1)C(=O)[C@H](CC(=O)NCCCOC)C2
  -2.7	i
O=C(C[C@H]1CC[C@H](NC(=O)Nc2ccccc2F)[C@@H](CO)O1)NCc1ccc(-c2ccccc2)cc1
  -0.2	i
COc1ccc(C(C)=O)cc1CC1(C)C(=O)Nc2ccc(OC(F)(F)F)cc21 (stereo unspecified)
  3.2	i
Cc1cccc(C)c1NC(=O)C(CCc1ccccc1)N1CCN(C)CC1 (stereo unspecified)
  3.5	i
COc1ccc(NC(=O)c2sc(=O)n(Cc3ccc4ccccc4c3)c2C)cc1OC
  0.5	i
Cc1nc(C(F)(F)F)ccc1C(=O)N1CCCC(C(=O)O)CC1 (stereo unspecified)
  -1.3	i
COc1ccc(-c2csc(C(C)(O)c3cccnc3)n2)cc1 (stereo unspecified)
  -4.8	i
CCNC(=O)C1(C)CCN1C(=O)Cc1ccc(C(C)C)cc1 (stereo unspecified)
  4.3	i
CCc1nc2ccc(C(=O)NCc3ccccc3OC)cn2c1N(C)Cc1ccc(N(C)C)cc1
  -0.3	i
Cc1ccc(NC(=O)c2sc3nc(N4CCOCC4)c4c(c3c2N)CCCC4)cc1
  -0.1	i
COc1cc(-c2ccc(N3C(c4ccsc4)=Cc4ccccc4C3CC(C)=O)cc2)cc(OC)c1OC (stereo unspecified)
  -1.1	i
CCOC(=O)[C@]12CCCC=C1N(Cc1ccco1)C(=O)[C@H](CC(=O)N1CCCC1)C2
  2.0	i
CC(=O)N(C)C[C@H]1Oc2ncc(Br)cc2C(=O)N([C@H](C)CO)C[C@@H]1C
  1.1	i
O=C(Nc1ccccc1)c1cc(C2CCCCN2S(=O)(=O)c2cccs2)on1 (stereo unspecified)
  -1.6	i
O=C1NC[C@@H](CCCCN2CCN(CCc3ccc(O)cc3)C(=O)C2=O)N(Cc2ccccc2)C1=O
  4.7	i
Nc1nc2c(nnn2C2CC(O)C(CO)O2)c(=O)[nH]1 (stereo unspecified)
  3.3	i
O=C(Nc1ccccc1Oc1ccccc1)[C@@H]1O[C@H](CO)[C@H](O)[C@H](O)[C@H]1O
  0.2	i
O=C1NC[C@@H](CCCCN2CCN(CCc3ccc(O)cc3)C(=O)C2=O)N(CC2CCCCC2)C1=O
  -5.7	i
O=C1CCC(C(=O)N2CCN(c3ccccc3)CC2)CN1Cc1ccc(Cl)cc1 (stereo unspecified)
  4.3	i
C[C@@H]1CCCCO[C@@H](CN(C)CC2CCCCC2)[C@@H](C)CN([C@H](C)CO)C(=O)c2cc(NS(=O)(=O)c3ccc(Cl)cc3)ccc2O1
  -6.7	i
COC[C@H]1CCCN1c1ccc2c(c1)O[C@H](COCc1ccccc1)CN([C@@H](C)c1ccccc1)S2(=O)=O
  4.0	i
CC(C)(C)OC(=O)C1=CC[C@@H](c2ccc(Cl)c(Cl)c2)N(S(=O)(=O)c2ccc(F)cc2)[C@H]1c1cccc(F)c1
  -2.6	i
COc1ccccc1N1CCN(Cc2cc(=O)oc3ccccc23)CC1
  1.5	i
COc1ccc(-c2nc(NC(=O)c3ccco3)sc2C)cc1
  -5.1	i
CCNC(=O)C1CCCN(C(=O)c2cccc(C#N)c2)CC1 (stereo unspecified)
  3.3	i

Full records as entered above:
CCNC(=O)C1CCCN(C(=O)c2cccc(C#N)c2)CC1 (stereo unspecified) in the list: HNF4A DNA FP: 3.3; FGF22 binding: i
O=C(Nc1ccccc1Oc1ccccc1)[C@@H]1O[C@H](CO)[C@H](O)[C@H](O)[C@H]1O in the list: HNF4A DNA FP: 0.2; FGF22 binding: i

The listing continues.
Each structure is followed by: HNF4A DNA FP	FGF22 binding
COc1ccc(CN2C(=O)C(CC(=O)NCC3CCCCC3)CC(C(=O)N(C(C)C)C(C)C)=C2C)cc1 (stereo unspecified)
  -2.2	i
CC(=O)NCCNc1nc2cc(-c3cccc(Cl)c3)sc2c(=O)n1C
  -3.0	i
COc1ccccc1-c1cn(CC[C@@H]2CC[C@H](NC(=O)C3CCC3)[C@@H](CO)O2)nn1
  0.0	i
Cn1nc(C(=O)NCC(=O)Nc2ccc(F)c(F)c2)ccc1=O
  5.0	i
CC(C)C(=O)N1CCC1(C)C(=O)Nc1ccc(-n2cncn2)cc1 (stereo unspecified)
  1.8	i
CCOC(=O)[C@]12CCCC=C1N(CCC1=CCCCC1)C(=O)[C@H](CC(=O)NCc1ccccc1)C2
  2.9	i
CN1OC[C@@H]2CN(S(=O)(=O)c3cccc(C(F)(F)F)c3)[C@H](c3ccc(-c4cc5ccccc5o4)cc3)C[C@@H]21
  5.5	i
O=C(CC[C@H]1O[C@@H](n2ccc(=O)[nH]c2=O)[C@H](O)[C@@H]1O)NCc1ccco1
  -0.9	i
CCNC(=O)Nc1ccc2c(c1)c(=O)n(C)n2CC=C(C)C
  -4.0	i
Cn1nccc1-c1coc2c(C(=O)NCc3ccccc3)cccc12
  -1.4	i
COCCNC(=O)C1(C)CCCN(C(=O)c2cccc3ccccc23)C1 (stereo unspecified)
  1.4	i
Cc1cc(F)ccc1C(O)c1ncc(-c2cccc(OCc3ccccc3)c2)[nH]1 (stereo unspecified)
  -2.3	i
O=C(NCC(=O)N1CCCC1)NN=Cc1ccccc1O
  1.2	i
CC(C)[C@@H](NC(=O)OC(C)(C)C)c1cc(C(=O)c2c(-c3ccccc3)[nH]c3ccccc23)c(N)s1
  3.9	i
COc1ccc(S(=O)(=O)N2CCCC(C(=O)NCc3cccnc3)C2)cc1C (stereo unspecified)
  0.8	i
O=[N+]([O-])c1cccc(S(=O)(=O)Nc2ccccn2)c1
  -2.1	i
COC(=O)C[C@H]1C=C[C@H](NC(=O)Nc2ccccc2F)[C@@H](CO)O1
  -1.2	i
O=C(OCc1ccccc1)N1CCC2CC1c1ccc(N3CCOCC3)cc12 (stereo unspecified)
  -2.0	i
COc1cc2ccc(C(C)=NNC(N)=S)cc2cc1OC
  -0.7	i
CC1(C(=O)NCc2ccccc2Br)CCN1Cc1csc2ccccc12 (stereo unspecified)
  -1.2	i
CC(=O)c1cccc(NC(=O)C2(C)Cc3c(-c4cccc(C(F)(F)F)c4)ccnc3O2)c1 (stereo unspecified)
  -0.3	i
O=[N+]([O-])c1ccc(Cl)c(CN2CCN(c3ncc(Cc4ccccc4)cn3)CC2)c1
  1.4	i
CN1C(=O)[C@H]2[C@@H](c3ccc(C(F)(F)F)cc3)N[C@]3(CCCN(Cc4cccn4C)C3=O)[C@H]2C1=O
  1.2	i
COc1ccc([C@H]2C[C@H](O)[C@@H](n3cc(-c4ccc(F)cc4)nn3)CN2C(=O)C2CCCCC2)cc1
  -0.7	i
O=C(NC1CCCCC1)C1c2ccccc2OCC(=O)N1Cc1ccco1 (stereo unspecified)
  -0.9	i
C[C@H]1CN([C@@H](C)CO)C(=O)CCCn2cc(nn2)CO[C@@H]1CN(C)C(=O)Oc1ccccc1
  -0.2	i
